# RGS16-Gao HTS: regulators of human RGS16-Galphao interaction | O15492+P09471 | bead-based flow cytometry RGS16-Galphao binding, fluorescence; actives lie on both sides | binding response (% of control), % at 10 µM | actives 0.38% (n = 220,000) | AID 1441;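 active = below 25% or above 175%, edge rows of some plates excepted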;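 note: Galphao activated by GDP with aluminum fluoride before binding; 100% = wells without compound and 0% = beads without RGS; some results beyond the cut were filed as inactive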
# INS promoter inh: TRM-6 insulin promoter activity inhibition. TRM-6 cells (human fetal islet line), insulin promoter-eGFP reporter, imaging; reporter expression induced with tamoxifen. inhibition, % at 2 µM. actives 0.9% (n = 130,000). AID 1273;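 active = inhibition above the mean plus 3 SD, with well images judged a real hit on visual review, cut at about 60% in these data, passing the limit was not always enough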
# GALR2 ag: GALR2 (human) receptor agonism; O43603; GALR2-expressing cells, agonist activation read-out; activation, %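 (tested at 5 µM)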; actives 0.48% (n = 140,000); AID 803;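 active = above mean plus 3 SD of all compounds, about 5% in these data, not always enough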;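 note: 0% = vehicle buffer wells and 100% = reference agonist at full effect; tested in CHO reporter cells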
# HSV replic up: increases HSV replication in cells | HSV replication augmentation in cells, fold increase | maximum fold increase | actives 0.005% (n = 220,000);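 active = peak rise of 1.5-fold or more in the series; tested in PC3 cells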;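 note: first round at 10 µM; read as green reporter fluorescence; hits show the peak of a series up to 25 µM; 1 = signal of infected wells without compound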
# PKD1 inh: blocks activity of human protein kinase D1. Q15139. PKD1 kinase fluorescence polarization assay. inhibition, %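 (about 10 µM by stock and volumes)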. actives 0.056% (n = 200,000). AID 797;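 active = inhibition of 50% or more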;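 note: controls were vehicle for no effect and a reference inhibitor for full effect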
# Target sequence (Q15139 whole entry, looked up): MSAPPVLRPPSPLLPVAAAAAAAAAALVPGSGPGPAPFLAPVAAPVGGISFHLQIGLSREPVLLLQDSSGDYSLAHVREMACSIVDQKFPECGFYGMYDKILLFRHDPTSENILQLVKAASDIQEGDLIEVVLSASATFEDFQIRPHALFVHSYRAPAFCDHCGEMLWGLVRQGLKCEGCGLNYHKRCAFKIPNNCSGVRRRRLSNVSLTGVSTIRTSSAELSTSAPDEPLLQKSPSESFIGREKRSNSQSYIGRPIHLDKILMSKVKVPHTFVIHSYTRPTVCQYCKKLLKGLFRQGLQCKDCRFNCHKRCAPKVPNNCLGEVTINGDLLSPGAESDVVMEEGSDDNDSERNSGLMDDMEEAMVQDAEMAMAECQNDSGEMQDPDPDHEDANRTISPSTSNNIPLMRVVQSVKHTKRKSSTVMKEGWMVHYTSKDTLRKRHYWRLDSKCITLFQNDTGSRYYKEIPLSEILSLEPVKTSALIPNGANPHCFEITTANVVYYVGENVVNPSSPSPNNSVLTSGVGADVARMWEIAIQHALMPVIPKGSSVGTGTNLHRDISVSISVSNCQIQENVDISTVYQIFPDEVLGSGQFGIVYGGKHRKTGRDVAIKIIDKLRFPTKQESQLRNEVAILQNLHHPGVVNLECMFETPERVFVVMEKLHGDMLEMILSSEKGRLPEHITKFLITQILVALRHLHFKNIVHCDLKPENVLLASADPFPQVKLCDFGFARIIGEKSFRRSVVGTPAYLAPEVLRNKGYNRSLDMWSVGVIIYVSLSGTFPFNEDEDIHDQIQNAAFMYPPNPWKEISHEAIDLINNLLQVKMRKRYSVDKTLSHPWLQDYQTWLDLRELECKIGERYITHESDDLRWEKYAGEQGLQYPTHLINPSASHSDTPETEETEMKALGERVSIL
# INS promoter inh cell count: further read-out of INS promoter inh, marked with its call; normalized cell count, %; measured here: cell count, toxicity; reference of the scale not given here;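 cells exposed to compound for 48 h; stained nuclei by imaging scaled within each plate; lower means fewer cells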
# HSV replic up primary fold: further read-out of HSV replic up, marked with its call; fold increase; compound at 10 µM; measured here: primary screen fold increase 10 uM; tested in PC3 cells;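 GFP signal in the first replicate; 1 = infected wells without compound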
# * hit, by the source's call; i = inactive; · = no result given. Not a hit list; overall some 1.3% were active at least once.
SMILES,RGS16-Gao HTS,INS promoter inh,INS promoter inh cell count,GALR2 ag,HSV replic up,HSV replic up primary fold,PKD1 inh
CS/C(=N\S(=O)(=O)c1ccccc1)c1ccccc1,107.5,0.0,143.8,-1.3,i,1.06,1.0
Cc1ccc2oc(=O)c(/C=C(\O)c3cccs3)nc2c1,104.8,·,·,·,i,0.64,·
COc1ccc(C=C(c2nc3ccccc3s2)c2nc3ccccc3s2)cc1O,52.5,-69.2,120.7,-0.7,·,·,3.0
COCC1CCCN(Cc2cn[nH]c2-c2cc3ccccc3o2)C1 (centres undefined),95.9,·,·,·,i,0.85,-4.7
COc1ccc(C(=O)Nc2ccc(NC(=O)C(C)C)nc2)cc1,111.9,-17.4,43.4,·,i,0.99,-6.0
CC1(c2ccccn2)Nc2ccccc2-c2nc3ccccc3n21 (centres undefined),99.4,14.3,105.5,-1.2,i,0.85,-7.1
COc1ccc(N(CC(=O)Nc2ccc(S(=O)(=O)N3CCOCC3)cc2)S(=O)(=O)c2ccc(F)cc2)cc1,104.3,·,·,·,i,0.98,0.4
CN1CCN(c2ccccc2NC(=O)C(Cc2ccccc2)n2cccc2)CC1 (centres undefined),99.4,·,·,-1.4,i,0.83,-3.5
CC(=O)C1=C(O)CC(c2ccccc2)CC1=NCCc1c(C)[nH]c2ccc(C)cc12 (centres undefined),·,4.8,106.2,-0.8,i,0.93,-6.5
Cc1ccc(NC(C#N)c2ccccc2OCc2ccccc2)cc1 (centres undefined),129.8,·,·,-0.5,·,·,0.9
CCCN(CC(=O)Nc1cc(Cl)ccc1Cl)C(=O)/C=C/c1ccco1,54.0,·,·,-0.5,i,0.98,2.3
CC(NC(=O)CSCc1ccccc1Br)c1ccccc1 (centres undefined),106.2,-12.5,106.5,-0.7,i,1.12,-9.6
O=C(OC1CCCCC1=O)c1cc(=O)c2ccccc2o1 (centres undefined),103.7,18.2,151.2,-2.7,i,1,6.9
O=C(NCCN1CCOCC1)c1ccc(CS(=O)(=O)Cc2ccccc2F)o1,108.6,-50.0,91.1,-1.7,i,0.98,-2.5
CN(C)c1nc(C(N)=O)nc(N2CCOCC2)n1,96.9,37.1,87.0,-3.2,i,1.17,-0.1
CCC1=NC(c2ccc(OC)cc2OC)N(O)C1(C)C (centres undefined),97.5,-118.2,124.5,-1.7,i,0.93,-0.9
COc1cc(CNc2ncnc3c2[nH]c2ccc(C)cc23)cc(OC)c1,95.0,·,·,·,i,0.92,·
Nn1c(SCC(=O)Nc2ccc3c(c2)OCO3)nnc1C(F)(F)F,105.7,·,·,·,i,1.07,0.9
Cn1c(SCC(=O)c2ccccc2F)nnc1C1CC1,102.2,11.5,101.4,-0.6,i,0.95,-5.3
COc1ccc(Nc2nc3c(c(=O)n(C)c(=O)n3C)n2CCO)cc1,105.3,25.8,110.2,-0.3,i,0.96,-13.1
Cc1c(NC(=O)c2cccc(NS(C)(=O)=O)c2)c(=O)n(-c2ccccc2)n1C,102.7,·,·,·,i,1.01,·
COc1ccc(OC)c(NC(=O)Nc2nnc(N3CCC(C)CC3)s2)c1,40.2,45.0,138.0,-1.3,·,·,-1.2
NC(=O)c1cc(-c2ccncc2)nc2ccc(Cl)cc12,90.2,·,·,·,i,0.92,4.5
O=C(NCc1cccs1)c1cccc(S(=O)(=O)N2CCCCC2)c1,104.9,-37.0,105.3,-0.3,i,0.94,-13.0
CN(C)C(=O)/C(=C/c1cn(-c2ccccc2)nc1-c1cccc([N+](=O)[O-])c1)NC(=O)c1ccccc1,96.4,·,·,0.6,i,0.95,7.1
CC(=NC1CCN(Cc2ccccc2)CC1)c1c(O)[nH]c(=O)[nH]c1=O,102.3,-41.9,70.8,-1.7,i,0.96,6.1
CCN(CC)C(=O)/C(=C\c1ccc(Br)cc1)NC(=O)c1ccccc1OC,98.2,3.2,102.3,-0.7,i,0.92,4.0
COc1ccc(N/N=C(/C(N)=O)C2=NC(C)(C)Cc3ccccc32)cc1,103.0,-3.3,103.8,-1.6,i,0.73,-7.4
COc1ccc(N(CC(=O)N2CCc3ccccc3C2)S(=O)(=O)c2ccccc2)cc1,101.1,·,·,·,i,1.05,-4.0
Cc1ccc2ncnc(Nc3ccccc3)c2c1,113.4,35.7,65.3,·,i,1,0.5
COc1ccc(-n2c(C)nc3c(cnn3-c3ccccc3)c2=O)cc1,111.6,·,·,-0.9,i,0.75,10.6
CCc1cc2c(=O)n(N)c(CCC(=O)O)nc2s1,103.6,-25.9,140.0,-0.2,i,0.97,-4.6
Cc1ccc(S(=O)(=O)NC(C)(C)CN2CCC(Cc3ccccc3)CC2)cc1,103.4,·,·,·,i,0.79,·
CCn1cc(/C=N/NC(=O)c2cc3c(ccc4ccccc43)o2)c2ccccc21,102.1,·,·,-2.0,i,0.81,-9.2
COc1ccccc1C1CCN(c2ccc([N+](=O)[O-])c(OC)c2)CC1,101.6,·,·,·,i,0.74,·
COc1ccccc1N/C=C(\C#N)c1nc2ccccc2[nH]1,53.4,·,·,·,i,0.85,1.6
Cc1csc(SCC(=O)Nc2cc(S(=O)(=O)N3CCOCC3)ccc2N2CCOCC2)n1,97.8,·,·,·,i,0.87,·
CC(O)c1n(C)c(Cl)c[n+]1C (centres undefined),90.0,28.8,104.6,-1.3,·,·,7.6
CC(C)(C)c1nnc(NC(=O)c2cc(-c3ccccc3)nc3ccccc23)s1,94.6,16.7,60.2,-0.2,i,0.94,-2.1
CCCCc1c(O)nc(SCCN(C)C)n(-c2ccccc2)c1=O,96.2,·,·,0.2,i,0.963,-11.2
COc1ccccc1S(=O)(=O)Cc1ccc(C(=O)NCc2cccs2)o1,104.5,·,·,-4.0,i,0.9,2.7
Cc1cccc(OCC(=O)N2CCN(C(=O)c3ccco3)CC2)c1,99.0,·,·,·,i,1.08,-4.3
C#Cc1ccc([C@@H]2C=C(C(=O)OCC=C)O[C@H](OCC)[C@H]2CCCO)cc1,107.9,·,·,·,·,·,4.6
COc1ccc(S(=O)(=O)N2CCOCC2)cc1NC(=O)Cc1ccccc1Cl,102.1,23.1,84.1,-1.1,·,·,-2.6
CCOC(=O)c1cc(NC(=O)C2CCCO2)cc(C(=O)OCC)c1 (centres undefined),96.7,12.5,165.0,-3.9,i,0.75,-5.1
CCCNC(=O)NC(=O)CN1C(=O)NC(C)(c2ccc(C)cc2)C1=O (centres undefined),101.2,·,·,-1.7,i,0.7,-5.7
CN1CCCC(OC(=O)CCCC(=O)OC2CCCN(C)C2)C1 (centres undefined),109.0,0.0,91.5,-0.3,i,1.01,2.3
COC(=O)c1c(C)[nH]c(/C=N/Nc2ccccc2)c1C,90.8,·,·,·,i,0.76,·
COCCN(C(=S)Nc1ccc(C)c(C)c1)C(C)c1ccco1 (centres undefined),99.1,-20.0,111.1,·,i,0.85,-0.9
Cc1ccc2nc3ccc(N4CCCCCCC4)nn3c(=O)c2c1,104.1,-27.3,95.6,-0.5,i,0.86,-4.9
CC(C)c1ccc(/C=N\NC(=O)c2ccc(Cn3cccn3)o2)cc1,105.9,-125.0,40.2,-0.5,i,0.98,7.2
O=C(N/N=C/c1ccc2c(c1)OCO2)C(O)c1ccccc1 (centres undefined),84.7,·,·,-0.8,i,0.95,-5.7
CC(=O)N1CCc2cc(S(=O)(=O)CCC(=O)Nc3c(C)n(C)n(-c4ccccc4)c3=O)ccc21,108.4,16.7,81.6,0.3,i,0.97,-0.8
CN(C)S(=O)(=O)c1cc(NC(=O)COC(=O)C2CSC3(C)CCC(=O)N23)ccc1Cl (centres undefined),100.0,35.5,126.8,-0.2,i,0.97,1.5
Nc1ccc(S(=O)(=O)Nc2ccc(S(N)(=O)=O)cc2)cc1,99.7,-160.0,109.0,0.5,i,1,-9.3
COC(=O)c1ccc(C)c(NC(=O)CCSc2ccccc2)c1,88.1,-25.0,105.3,-1.6,i,0.95,-14.6
Cc1c(NC(=O)C2CCCN2S(=O)(=O)c2ccccc2)c(=O)n(-c2ccccc2)n1C (centres undefined),99.9,·,·,-0.2,i,1,5.0
O=C(Nc1nccs1)C(F)(F)C(F)(F)C(F)(F)C(=O)Nc1nccs1,99.7,·,·,·,i,0.83,·
CC1CCCCN1CC(=O)Nc1sc2c(c1C#N)CCC2 (centres undefined),102.5,·,·,0.7,i,0.95,0.1
Cc1cccc(CSc2nnc(N)n2-c2ccccc2)c1,101.8,28.6,118.5,-1.6,i,0.83,-2.8
# Next part.
SMILES,RGS16-Gao HTS,INS promoter inh,INS promoter inh cell count,GALR2 ag,HSV replic up,HSV replic up primary fold,PKD1 inh
NC(=O)CC(NC(=O)c1ccccc1)c1ccc(NC2CCCCC2)c([N+](=O)[O-])c1 (centres undefined),101.1,·,·,·,i,0.81,·
Cc1sc2c3ccsc3ccc2[n+]1C,91.8,·,·,·,i,0.94,0.5
CS(=O)(=O)N1CCC(C(=O)Nc2cccc(Cl)c2)CC1,104.1,36.4,77.4,·,i,1.1,-4.2
CCN(CC)c1ccc(/C=N/N(c2ccccc2)c2ccccc2)c(O)c1,96.8,·,·,0.5,i,1.19,-5.7
O=c1c2nnn(-c3ccccc3)c2ncn1C/C=C/c1ccccc1,93.3,·,·,·,i,0.74,-2.5
O=C(COc1ccc(Cl)cc1)Nc1ccccc1C(=O)NCc1ccco1,108.3,-437.5,48.4,-2.8,i,0.96,-0.1
CCC(C(=O)Nc1cc(C(=O)O)ccc1C)c1ccccc1 (centres undefined),97.5,53.5,100.6,·,i,0.97,3.9
CCN1C(=O)/C(=C2/C=Cc3ccccc3N2CC)SC1=S,100.0,11.1,73.6,·,i,0.89,-1.1
CCCOc1ccc(C2c3c(oc4cc(C)c(C)cc4c3=O)C(=O)N2CCCN(C)C)cc1OCC (centres undefined),117.8,-31.7,37.6,-0.8,·,·,-7.1
CCOC(=O)N1CCN(S(=O)(=O)c2cc(OCC(=O)NC3CCCCC3)c(C)cc2Cl)CC1,106.3,-58.3,37.6,-1.4,i,0.82,-4.9
O=C(O)CNC(=O)/C=C/c1c(Cl)cccc1Cl,98.9,·,·,·,i,0.98,-3.9
CN1CCN(c2ccc(-c3ccc4ccccc4n3)cc2)CC1,97.5,·,·,·,i,0.9,-5.5
COC(=O)C1CCN(C(=O)c2ccc(Cl)c(S(=O)(=O)NCc3cccnc3)c2)CC1,98.3,-6.5,101.4,-1.9,i,0.9,-3.3
COc1ccc(Cl)cc1NC(=O)CN1CCC(n2nnc3cc(C)ccc32)CC1,107.2,·,·,-3.3,i,0.83,7.0
COc1cc(OC)c(NC(=O)C(=O)CC(=O)c2ccc(C)cc2C)cc1Cl,101.3,9.1,73.7,·,i,1.04,-7.3
Cc1nn(-c2ccccc2)nc1C(=O)NNC(=O)c1cccc2ccccc12,94.4,·,·,·,i,1.22,·
Cc1ccc(NC(=O)C2CCN(S(C)(=O)=O)CC2)cc1,100.6,-18.4,63.5,-1.9,i,1.04,-0.3
CC(C)C(C(=O)Nc1ccc2c(c1)OCO2)N1C(=O)c2ccccc2C1=O (centres undefined),102.6,-300.0,78.4,-0.7,i,0.85,-0.5
C=CCn1c(SCC(=O)Nc2nc(C)cs2)nnc1C(CO)NC(=O)c1ccccc1 (centres undefined),96.8,-12.5,131.1,-1.8,i,1,-0.9
O=C(N/N=C/C=C/c1ccccc1)c1cnccn1,99.8,-18.6,113.7,-1.4,i,0.977,-3.2

# Next section, overlapping the part above by 4 compounds.
SMILES,RGS16-Gao HTS,INS promoter inh,INS promoter inh cell count,GALR2 ag,HSV replic up,HSV replic up primary fold,PKD1 inh
Cc1ccc(NC(=O)C2CCN(S(C)(=O)=O)CC2)cc1,100.6,-18.4,63.5,-1.9,i,1.04,-0.3
CC(C)C(C(=O)Nc1ccc2c(c1)OCO2)N1C(=O)c2ccccc2C1=O (centres undefined),102.6,-300.0,78.4,-0.7,i,0.85,-0.5
C=CCn1c(SCC(=O)Nc2nc(C)cs2)nnc1C(CO)NC(=O)c1ccccc1 (centres undefined),96.8,-12.5,131.1,-1.8,i,1,-0.9
O=C(N/N=C/C=C/c1ccccc1)c1cnccn1,99.8,-18.6,113.7,-1.4,i,0.977,-3.2
COc1nc2ccc(C)cc2cc1-c1noc(-c2cccnc2)n1,107.1,-56.8,84.7,-3.1,i,0.9,-6.7
Cc1ccc(CSc2nnc(-c3cccc(S(=O)(=O)N4CCOCC4)c3)n2C2CCCC2)cc1,89.9,-71.4,104.6,-1.3,i,1.01,-4.7
CCOC(=O)N1CCC(NS(=O)(=O)c2ccccc2)CC1,97.5,·,·,·,i,1.15,·
O=C(NCc1ccncc1)c1nc(-c2cccs2)no1,101.5,17.6,76.8,·,i,1.18,-2.0
CCn1c(NCc2ccc3c(c2)OCO3)nc2ccccc21,143.6,52.8,44.1,-1.3,i,0.85,-7.0
Cc1cc(C)n(-c2nnc(C)c(=O)[nH]2)n1,109.4,·,·,-2.2,i,0.91,1.3
O=[N+]([O-])c1cccnc1SCc1c(F)cccc1Cl,103.3,·,·,·,i,1.21,·
